Yeast UUG start: modulators of yeast start codon fidelity, primary screen, whole organism, S. cerevisiae, single point, plate reader; S. cerevisiae UUG-firefly luciferase reporter, luminescence/redox ratio; activity score, % at 18.7 µM; 0.13% of 350,000 active; AID 602363, 2012;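 active means replicate mean at a twofold rise or more, about +100% in these data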;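 further: firefly luciferase made from a UUG start codon reports start codon fidelity; reporter light over untreated wells divided by growth signal over untreated wells; some hits fall short of that in this replicate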
Numbers without * were called inactive.

Yeast UUG start	smiles
-11	CO[C@@H]1CN(C)C(=O)c2cc(NC(=O)C3CCOCC3)ccc2OC[C@@H](C)N(CC2CCCCC2)C[C@H]1C
-9	Cc1cc(C(=O)Nc2cccc3c2O[C@H](CN(C)Cc2ccc(C(=O)Nc4ccccc4N)cc2)[C@H](C)CN([C@H](C)CO)C3=O)n(C)n1
15	CCC(=O)N1C[C@H](C)[C@H](OC)CN(C)C(=O)c2ccc(NC(=O)Nc3cccc(F)c3)cc2OC[C@H]1C
14	CCCNC(=O)[C@@H]1[C@@H](CO)[C@@H]2Cn3c(ccc(-c4ccc(F)cc4)c3=O)[C@H]1N2Cc1ccccc1F
-4	COc1ccc(CN(C)C[C@@H]2Oc3c(NC(=O)NC(C)C)cccc3C(=O)N([C@@H](C)CO)C[C@@H]2C)cc1
0	COc1ccc(-c2ccc([C@H]3[C@H](CO)N4CCCCN(C(=O)c5ccc6c(c5)OCO6)C[C@@H]34)cc2)cc1
19	C[C@@H]1CN([C@H](C)CO)C(=O)c2cc(NC(=O)Cn3cnnn3)ccc2O[C@H]1CN(C)C(=O)Nc1ccc(C(F)(F)F)cc1
19	C[C@H]1CN([C@@H](C)CO)C(=O)c2cc(NC(=O)CCC(F)(F)F)ccc2O[C@H]1CN(C)C(=O)Nc1ccc(C(F)(F)F)cc1

The list goes on:
Yeast UUG start	smiles
12	CO[C@@H]1CN(C)C(=O)c2cc(NS(=O)(=O)CC(F)(F)F)ccc2OC[C@@H](C)N(C(=O)c2ccc3c(c2)OCO3)C[C@@H]1C
7	CC(C)(O)C#Cc1ccc([C@H]2[C@H](CO)N3CCCCN(S(C)(=O)=O)C[C@@H]23)cc1
1	CC(C)NC(=O)N1[C@@H](CO)[C@@H]2c3ccccc3NC[C@@H]21
20	C[C@H](CO)N1C[C@H](C)[C@H](CN(C)Cc2ccncc2)Oc2c(NC(=O)c3ccc(-c4nccs4)cc3)cccc2C1=O
2	O=C(CC1CC1)N1[C@@H]2CN(S(=O)(=O)c3ccc(F)cc3)c3ccccc3[C@@H]2[C@@H]1CO
0	C[C@@H]1CN([C@H](C)CO)C(=O)Cc2cc(NC(=O)c3ccncc3)ccc2O[C@@H]1CN(C)C(=O)Nc1ccccc1
-10	C[C@@H]1CN([C@H](C)CO)C(=O)c2cc(NC(=O)c3ccncc3)ccc2O[C@@H]1CN(C)Cc1ccc(C(=O)Nc2ccccc2N)cc1
6	C[C@H](CO)N1C[C@H](C)[C@H](CN(C)C(=O)Nc2ccc(C(F)(F)F)cc2)Oc2ccc(NC(=O)Cn3cnnn3)cc2C1=O

(list continues)
Yeast UUG start	smiles
10	CCCC(=O)Nc1ccc2c(c1)C(=O)N(C)C[C@H](OC)[C@@H](C)CN(C(=O)c1cccnc1)[C@H](C)CO2
17	COC(=O)[C@H]1[C@H](CO)[C@H]2Cn3c(ccc(C4=CCCC4)c3=O)[C@H]2N1C(=O)C1CC1
-13	C[C@H]1CN([C@@H](C)CO)C(=O)c2cc(NC(=O)c3ccncc3)ccc2O[C@@H]1CN(C)C(=O)NC1CCCCC1
-12	C[C@H]1CN([C@@H](C)CO)C(=O)c2cc(NS(C)(=O)=O)ccc2O[C@H]1CN(C)C(=O)Nc1ccc2c(c1)OCO2
-6	Cc1cc(C(=O)Nc2cccc3c2O[C@H](CN(C)S(=O)(=O)c2c(C)noc2C)[C@H](C)CN([C@@H](C)CO)C3=O)n(C)n1
2	CCCN1C[C@H](C)[C@H](OC)CN(C)C(=O)c2cc(NC(=O)C3CC3)ccc2OC[C@@H]1C
16	CCC(=O)N1[C@H](CO)[C@H](c2ccccc2)[C@H]1CN(C(C)C)S(C)(=O)=O
29	CN1CCCCN2[C@H](C1)[C@H](c1ccc(C#CC3(O)CCCC3)cc1)[C@@H]2CO

Of the compounds above, these have fluorine:
Yeast UUG start	smiles
15	CCC(=O)N1C[C@H](C)[C@H](OC)CN(C)C(=O)c2ccc(NC(=O)Nc3cccc(F)c3)cc2OC[C@H]1C
14	CCCNC(=O)[C@@H]1[C@@H](CO)[C@@H]2Cn3c(ccc(-c4ccc(F)cc4)c3=O)[C@H]1N2Cc1ccccc1F
19	C[C@@H]1CN([C@H](C)CO)C(=O)c2cc(NC(=O)Cn3cnnn3)ccc2O[C@H]1CN(C)C(=O)Nc1ccc(C(F)(F)F)cc1
19	C[C@H]1CN([C@@H](C)CO)C(=O)c2cc(NC(=O)CCC(F)(F)F)ccc2O[C@H]1CN(C)C(=O)Nc1ccc(C(F)(F)F)cc1
12	CO[C@@H]1CN(C)C(=O)c2cc(NS(=O)(=O)CC(F)(F)F)ccc2OC[C@@H](C)N(C(=O)c2ccc3c(c2)OCO3)C[C@@H]1C
2	O=C(CC1CC1)N1[C@@H]2CN(S(=O)(=O)c3ccc(F)cc3)c3ccccc3[C@@H]2[C@@H]1CO
6	C[C@H](CO)N1C[C@H](C)[C@H](CN(C)C(=O)Nc2ccc(C(F)(F)F)cc2)Oc2ccc(NC(=O)Cn3cnnn3)cc2C1=O

(list continues)
Yeast UUG start	smiles
26	CCNC(=O)[C@H]1[C@H](CO)[C@H]2Cn3c(ccc(C4=CCCCC4)c3=O)[C@H]2N1Cc1ccccc1F
-12	CN1C[C@@H]2[C@H](c3ccccc31)[C@H](CO)N2C(=O)Nc1ccc(F)cc1
10	CCCNC(=O)N1C[C@@H]2[C@H](c3ccccc31)[C@H](CO)N2C(=O)c1ccccc1
0	O=C(C[C@H]1CC[C@H]2[C@@H](COC[C@H](O)CN2Cc2ccc(Oc3ccccc3)cc2)O1)N1CCOCC1
-5	C[C@H](CO)N1C[C@H](C)[C@H](CN(C)C(=O)Nc2ccc(C(F)(F)F)cc2)Oc2ccc(NC(=O)Nc3cccc4ccccc34)cc2C1=O
35	O=C(c1ccncc1)N1C[C@@H]2[C@H](c3ccccc31)[C@H](CO)N2C(=O)CN1CCOCC1
-2	C[C@H](CO)N1C[C@H](C)[C@H](CN(C)C)Oc2ccc(NC(=O)Nc3cccc4ccccc34)cc2CC1=O
2	C/C=C/c1ccc([C@H]2[C@@H](CO)N3CCCCN(C(=O)Nc4cc(F)ccc4F)C[C@H]23)cc1

Remaining list, next part:
Yeast UUG start	smiles
5	O=C(C[C@H]1CC[C@@H]2[C@H](COC[C@H](O)CN2C(=O)c2ccccc2)O1)NCc1cccc(F)c1
-1	O=C(C1CC1)N1CCCCN2[C@@H](CO)[C@H](c3ccc(C#CC4CCCC4)cc3)[C@@H]2C1
-1	C[C@@H]1CN([C@@H](C)CO)C(=O)c2cc(NC(=O)NC3CCCCC3)ccc2O[C@H]1CN(C)S(=O)(=O)c1ccccc1
-5	CCCNC(=O)Nc1ccc2c(c1)C(=O)N(C)C[C@H](OC)[C@H](C)CN(Cc1cncnc1)[C@H](C)CO2
6	C[C@H](CO)N1C[C@H](C)[C@H](CN(C)C(=O)NC2CCCCC2)Oc2ccc(NS(=O)(=O)c3cccs3)cc2C1=O
-5	C[C@@H]1CN([C@H](C)CO)C(=O)Cc2cc(NC(=O)Nc3cccc4ccccc34)ccc2O[C@@H]1CN(C)C
12	CN(C)C(=O)c1cccc(-c2ccc3c(c2)[C@@H]2[C@@H](CCN2C(=O)c2ccc(F)cc2)[C@H](CO)N3C)c1
-10	O=C(NCC(F)(F)F)[C@H]1[C@H](CO)[C@H]2Cn3c(cccc3=O)[C@@H]1N2C(=O)C1CC1

Next part.
Yeast UUG start	smiles
-16	CCS(=O)(=O)N1CCCCN2[C@H](CO)[C@@H](c3ccc(C#CC(C)(C)O)cc3)[C@@H]2C1
-12	N#Cc1cccc(-c2ccc([C@H]3[C@H]4CN(C(=O)Nc5ccccc5)CCCCN4[C@H]3CO)cc2)c1
0	CO[C@H]1CN(C)C(=O)c2cc(NC(=O)NC3CCCCC3)ccc2OC[C@H](C)N(C(C)=O)C[C@@H]1C
-11	CN(C)C(=O)[C@@H]1[C@@H](CO)[C@@H]2Cn3c(ccc(C4=CCCC4)c3=O)[C@@H]2N1Cc1ccccn1
-2	CCNC(=O)C[C@@H]1CC[C@@H]2[C@@H](COc3ccc(NC(=O)c4ccc(F)c(F)c4)cc3C(=O)N2C)O1
-15	CN1C(=O)c2cc(NC(=O)Nc3ccccc3F)ccc2OC[C@H]2O[C@@H](CC(=O)Nc3cccc(Cl)c3)CC[C@@H]21
18	O=S(=O)(c1ccc(F)cc1)N1CCCCN2[C@H](CO)[C@@H](c3ccc(-c4ccccc4)cc3)[C@H]2C1
6	O=C(NC[C@H]1[C@H](c2ccccc2)[C@H](CO)N1Cc1cccnc1)c1ccccn1

(more compounds)
Yeast UUG start	smiles
16	O=C(c1ccc(F)cc1)N1C[C@@H]2[C@H](c3ccccc31)[C@H](CO)N2C(=O)c1ccccc1
-7	CCC(=O)N1[C@@H](CO)[C@@H]2c3ccccc3N(C(=O)Nc3ccc(Cl)cc3)C[C@@H]21
-10	C[C@H]1CN([C@@H](C)CO)C(=O)c2cccc(NS(=O)(=O)c3ccc(Cl)cc3)c2O[C@@H]1CN(C)C(=O)Nc1ccc(C(F)(F)F)cc1
34	Cc1noc(C)c1NC(=O)N(C)C[C@@H]1Oc2ccc(NC(=O)NC3CCCCC3)cc2C(=O)N([C@@H](C)CO)C[C@@H]1C
-1	C[C@H](CO)N1C[C@H](C)[C@H](CN(C)Cc2ccncc2)Oc2c(NC(=O)Nc3ccc(C(F)(F)F)cc3)cccc2C1=O
-11	C[C@@H]1CN([C@H](C)CO)C(=O)c2cccc(NC(=O)c3nc4ccccc4s3)c2O[C@@H]1CN(C)C(=O)Nc1cccc2ccccc12
-8	O=C(c1cccc(F)c1)N1C[C@H]2[C@@H](c3ccccc31)[C@H](CO)N2C(=O)C1CC1
3	CC(C)NC(=O)N1C[C@H]2[C@@H](c3ccccc31)[C@@H](CO)N2C(=O)c1ccccc1F

Continued.
Yeast UUG start	smiles
-14	COc1ccc(-c2ccc3c(c2)[C@@H]2[C@@H](CCN2C(=O)c2cnccn2)[C@H](CO)N3)cc1
-19	COc1cccc(C(=O)Nc2ccc3c(c2)C(=O)N(C)[C@H]2CC[C@H](CC(=O)Nc4ccc5c(c4)CCCC5)O[C@@H]2CO3)c1
20	COCC(=O)Nc1ccc2c(c1)C(=O)N(C)[C@@H]1CC[C@H](CC(=O)NCCc3ccncc3)O[C@H]1CO2
26	O=S(=O)(c1ccccc1)N1CCCCN2[C@@H](CO)[C@H](c3ccc(C#CC4CCCC4)cc3)[C@@H]2C1
-16	O=C(c1cccnc1)N1C[C@@H]2[C@H](c3ccccc31)[C@H](CO)N2C(=O)Nc1ccccc1F
-11	C/C=C/c1ccc([C@H]2[C@@H](CO)N(C(C)=O)[C@H]2CN(C)S(C)(=O)=O)cc1
-5	CO[C@H]1CN(C)C(=O)c2ccc(NC(C)=O)cc2OC[C@@H](C)N(CC2CCCCC2)C[C@@H]1C
16	C[C@@H]1CN([C@@H](C)CO)C(=O)c2cc(NC(=O)Cc3cn(C)c4ccccc34)ccc2O[C@H]1CN(C)C(=O)Nc1ccc(F)cc1

(next part)
Yeast UUG start	smiles
2	Cc1ccc(S(=O)(=O)Nc2ccc3c(c2)CC(=O)N([C@@H](C)CO)C[C@H](C)[C@@H](CN(C)Cc2ccc4c(c2)OCO4)O3)cc1
1	CCCNC(=O)Nc1ccc2c(c1)OC[C@@H](C)N(Cc1cncnc1)C[C@H](C)[C@H](OC)CN(C)C2=O
10	O=C(NCCc1ccncc1)[C@H]1[C@H](CO)[C@H]2Cn3c(ccc(-c4ccncc4)c3=O)[C@@H]1N2
3	C[C@H](O)C#Cc1ccc([C@H]2[C@H](CO)N3CCCCN(C(=O)c4ccncc4)C[C@@H]23)cc1
13	C[C@@H]1CN([C@@H](C)CO)C(=O)c2cccc(NC(=O)C3CCCCC3)c2O[C@@H]1CN(C)S(=O)(=O)c1ccc(F)cc1
3	C[C@H](CO)N1C[C@H](C)[C@@H](CN(C)C(=O)Nc2ccc3c(c2)OCO3)Oc2c(NC(=O)c3cnccn3)cccc2C1=O
0	COCC(=O)N1CCCCN2[C@H](C1)[C@@H](c1ccc(-c3cccc(C)c3)cc1)[C@@H]2CO
23	CC=Cc1ccc2n(c1=O)C[C@H]1[C@H](CO)[C@@H](C(=O)N3CCc4ccccc4C3)[C@@H]2N1CCC (mixture of isomers)

Later entries
Yeast UUG start	smiles
0	CCCNC(=O)Nc1ccc2c(c1)C(=O)N(C)C[C@@H](OC)[C@@H](C)CN(C(=O)C1CC1)[C@@H](C)CO2
-14	COc1ccc(-c2ccc([C@H]3[C@H]4CN(C(=O)NC(C)C)CCCCN4[C@H]3CO)cc2)cc1
4	C[C@@H]1CN([C@@H](C)CO)C(=O)Cc2cc(NC(=O)c3ccncc3)ccc2O[C@@H]1CN(C)Cc1ccc(Oc2ccccc2)cc1
-8	CO[C@H]1CN(C)C(=O)c2cc(NC(=O)CC(F)(F)F)ccc2OC[C@@H](C)N(S(=O)(=O)c2cn(C)cn2)C[C@H]1C
-10	C[C@@H]1CN([C@@H](C)CO)C(=O)c2cc(NC(=O)c3ccncc3)ccc2O[C@H]1CN(C)C(=O)NC1CCCCC1
-9	CC(=O)N1CCCCN2[C@@H](CO)[C@H](c3ccc(-c4ccccc4)cc3)[C@@H]2C1
2	CNC[C@H]1Oc2c(NS(=O)(=O)c3cccs3)cccc2C(=O)N([C@@H](C)CO)C[C@H]1C
11	C[C@@H]1CN([C@@H](C)CO)C(=O)c2cccc(NC(=O)Nc3ccccc3)c2O[C@@H]1CN(C)S(=O)(=O)c1ccc(Cl)cc1
12	C[C@H](NC(=O)[C@H]1[C@H](CO)[C@H]2Cn3c(cccc3=O)[C@@H]1N2Cc1ccccc1)c1ccccc1
3	CN(C)C(=O)C[C@@H]1CC[C@@H]2[C@H](COc3ccc(NC(=O)Nc4cccc(Cl)c4)cc3C(=O)N2C)O1
-11	CCC(=O)Nc1ccc2c(c1)C(=O)N(C)C[C@@H](OC)[C@H](C)CN(Cc1ccccc1F)[C@@H](C)CO2

Random excerpt: 4 records from the list
Yeast UUG start	smiles
-12	CN1C[C@@H]2[C@H](c3ccccc31)[C@H](CO)N2C(=O)Nc1ccc(F)cc1
2	CNC[C@H]1Oc2c(NS(=O)(=O)c3cccs3)cccc2C(=O)N([C@@H](C)CO)C[C@H]1C
-11	CO[C@@H]1CN(C)C(=O)c2cc(NC(=O)C3CCOCC3)ccc2OC[C@@H](C)N(CC2CCCCC2)C[C@H]1C
2	C/C=C/c1ccc([C@H]2[C@@H](CO)N3CCCCN(C(=O)Nc4cc(F)ccc4F)C[C@H]23)cc1

Assay outcomes: PubChem BioAssay, Broad Institute

Not all compounds are listed, so the mix of outcomes need not match the whole.
